Vaccinia Venus – qHTS for Stage-Specific Inhibitors of Vaccinia Orthopoxvirus: Venus Reporter Primary qHTS | Vaccinia virus Venus reporter expression, fluorescence | Potency, µM (doses to about 36.5 µM), inactives show at the highest dose activity change, negative = inhibition, usual class: inhibitors | 0.46% of 330,000 active | AID 720580, 2013; active means well fitted inhibition curve with a large enough effect; inconclusive means small, poorly fitted or top-dose-only effect; inactive means no such curve, though single readings can be large or run the other way; tested in A549 cells; note: nearly all actives have a fitted effect of over 30% in size; inactives centre near -10
Vaccinia mCherry – qHTS for Stage-Specific Inhibitors of Vaccinia Orthopoxvirus: mCherry Reporter Primary qHTS; 0.63% of 310,000 active; AID 720579, 2013; Potency, µM (highest dose often 36.5 µM), inactives show at the top dose activity change, negative = inhibition, actives largely listed as inhibitors; Vaccinia virus mCherry reporter infection, fluorescence; about a quarter of the inactives have no number; active = well fitted inhibition curve with a large enough effect; inconclusive = small, poorly fitted or top-dose-only effect; inactive = no such curve, though single readings can be large or run the other way; tested in A549 cells; note: nearly all actives have a fitted effect of over 35% in size; inactives centre near -10
Starred values were filed as active, the others as inactive; i = inactive; ? = inconclusive; . = not tested or not shown; & = joins results of further samples; [ ] = dose if it differs, or a comment. % is set by controls: 0 for no effect and ±100 for the full control effect; potency is the fitted concentration of half-maximal effect.

The opening 6 entries, ahead of the listing:
SMILES | Vaccinia Venus | Vaccinia mCherry
COc1ccccc1NC(=O)c1ccccc1SCC(=O)N1CCCC1 | -18% | i
Fc1ccccc1C(c1nnnn1Cc1ccc2c(c1)OCO2)N1CCN(Cc2ccco2)CC1 (stereo not drawn) | -25% | -2%
Cc1c(Nc2nc(-c3cccc([N+](=O)[O-])c3)cs2)c(=O)n(-c2ccccc2)n1C | -28% | ?
CC1CN=C2C(C(=O)Nc3ccccc3)=C(O)CC(c3ccccc3)N21 (stereo not drawn) | -21% | 16%
O=c1cc(-c2ccccc2)c2ccc(O)cc2o1 | -10% | -25%
C=CCn1c(CNC(=O)c2ccccc2F)nnc1SCc1nc2ccccc2c(=O)[nH]1 | 1% | 4%

All compounds of this part, previewed entries included:
SMILES | Vaccinia Venus | Vaccinia mCherry
COc1ccccc1NC(=O)c1ccccc1SCC(=O)N1CCCC1 | -18% | i
Fc1ccccc1C(c1nnnn1Cc1ccc2c(c1)OCO2)N1CCN(Cc2ccco2)CC1 (stereo not drawn) | -25% | -2%
Cc1c(Nc2nc(-c3cccc([N+](=O)[O-])c3)cs2)c(=O)n(-c2ccccc2)n1C | -28% | ?
CC1CN=C2C(C(=O)Nc3ccccc3)=C(O)CC(c3ccccc3)N21 (stereo not drawn) | -21% | 16%
O=c1cc(-c2ccccc2)c2ccc(O)cc2o1 | -10% | -25%
C=CCn1c(CNC(=O)c2ccccc2F)nnc1SCc1nc2ccccc2c(=O)[nH]1 | 1% | 4%
COc1cc(OC)cc(C(=O)N2CCN(C(=O)COc3ccccc3)CC2)c1 | -2% | -3%
COc1ccc(-c2cc(C)no2)cc1S(=O)(=O)N1CCN(c2ccccn2)CC1 | -19% | -4%
O=C(Nc1ccc2c(c1)CCC2)c1ccccc1F | -16% | ?
Cc1sc2c(c1C)c(=O)n(-c1ccc(Cl)cc1)c(=O)n2Cc1cc(=O)n2ccccc2n1 | 6%&1% | 1%
O=C(c1cnsn1)N1CCC(CO)(Cc2cccc(F)c2)CC1 | -11% | i
O=[N+]([O-])c1oc2ccc3ccccc3c2c1CCO | 10µM* | ?
CC(C)Oc1ccc(C(=O)Nc2ccc3c(c2)CCCN3C(=O)c2cccs2)cc1 | ? | ?
COc1cccc(CN(CC(=O)NCc2ccco2)C(=O)CNS(=O)(=O)c2ccccc2)c1 | -7% | -15%
O=C(/C=C/c1ccccc1)NC(=S)Nc1ccccc1O | -18% | ?

Full records, quoted from the list:
O=c1cc(-c2ccccc2)c2ccc(O)cc2o1 reads Vaccinia Venus: -10%; Vaccinia mCherry: -25%
COc1ccc(-c2cc(C)no2)cc1S(=O)(=O)N1CCN(c2ccccn2)CC1 reads Vaccinia Venus: -19%; Vaccinia mCherry: -4%
COc1ccccc1NC(=O)c1ccccc1SCC(=O)N1CCCC1 reads Vaccinia Venus: -18%; Vaccinia mCherry: i

New compounds follow:
SMILES | Vaccinia Venus | Vaccinia mCherry
C=CCNCCOc1ccccc1-c1ccccc1 | -20% | ?
COc1ccccc1/C=N/NC(=O)c1ccccc1Cl | -1% | -2%
Cc1ccc2nc(Nc3ccccc3O)nc(-c3ccccc3)c2c1 | -16% | i
CCOc1cc(CNc2ccc(OC)cc2)cc(Br)c1OCC(=O)NC(C)(C)C | ? | -12%
CCOc1ccc(NC(=O)Cn2c(=O)n(Cc3ccccc3)c(=O)c3c4c(sc32)CN(C(C)=O)CC4)cc1 | -12% | i
C/C(=N/NC(=O)c1ccc(C(C)(C)C)cc1)c1ccccn1 | ? | 2.8µM*
O=C(CSc1nnc(-c2cccc(S(=O)(=O)N3CCCCC3)c2)o1)c1ccc[nH]1 | -30% | -17%
CCOC(=O)c1sc(N2C(=O)c3oc4cc(C)c(C)cc4c(=O)c3C2c2ccc(C)cc2)nc1C (stereo not drawn) | -13% | -4%
CC(=O)C1=CCC(c2ccccc2)N(Cc2ccccc2)C1 (stereo not drawn) | -24% | ?
Cc1c(NC(=O)C2(c3ccccc3)CCOCC2)c(=O)n(-c2ccccc2)n1C | -8% | -11%
CCOc1ccccc1Nc1ncccc1C(=O)N1CCCC1 | ? | -6%
CCN(CC)C(=O)[C@H]1CC(CC(=O)NCc2ccco2)C(=O)N2CCc3c([nH]c4ccc(OC)cc34)[C@]12C (stereo partly drawn) | -5% | -5%
COc1ccc(/C=C2\SC(=O)N(CC(=O)NCCC(C)C)C2=O)cc1OC | -6% | -13%
CCOc1ccc(CCNC(=O)C2CCN(Cc3nc(-c4ccccc4C)oc3C)CC2)cc1OCC | ? | ?
O=S1(=O)CC(N2CCSCC2)CN1Cc1cn(Cc2ccc(Cl)cc2)nn1 (stereo not drawn) | -4% | -5%
COc1ccc(/C(C)=N\NC(=O)C(c2ccncc2)N2CCOCC2)cc1 (stereo not drawn) | -5% | i
Cc1ccc(NC2CCCN(C(=O)CCN3CCCCO3)C2)cc1C (stereo not drawn) | -12% | i
c1ccc(-c2noc(-c3cccc4ccccc34)n2)nc1 | -16% | -27%
Cc1ccc(C)c(OCC(=O)Nc2cc(C(=O)O)cc(C(=O)O)c2)c1 | -7% | i
COc1ccc(N2CCN(C(=O)c3cccc(NC(=O)c4nsc5ccccc45)c3)CC2)cc1 | -28% | i
O=C(NCC(c1cccs1)N1CCOCC1)c1ccc(Cl)cc1 (stereo not drawn) | -26% | -9%
CC(C)CN(C(=O)CN1CCOCC1)c1c(N)n(CC(C)C)c(=O)[nH]c1=O | 0% | -20%
O=C(/C=C/c1ccco1)Nc1scc(-c2ccccc2)c1C(=O)O | -11% | 7%
CCOC(=O)C1=C(O)C(=O)N(Cc2cccnc2)C1c1ccc(OC)cc1 (stereo not drawn) | -12% | -6%
Cc1cc(N(C)C)cc(C)c1/C=C/c1ccnc2ccccc12 | -23% | -17%
COc1ccc(NC(=O)N2CCC(CN3CCCC3)CC2)c(OC)c1 | -3% | -9%
Cc1ccc(S(=O)(=O)NCCc2nnc3ccc(SCC(=O)Nc4ccc(OC(F)(F)F)cc4)nn23)cc1 | -16% | -8%
CN(C)c1ccc(C(CNS(=O)(=O)c2ccc(F)cc2)N2CCCC2)cc1 (stereo not drawn) | -6% | -11%
Cc1ccc(NC(=O)c2cc(C(C)(C)C)nn2Cc2ccccc2)cc1 | -15% | -18%
CSc1cccc(NC(=O)C(C)C)c1 | -3% | i

A second format for some results above.
CC(C)CN(C(=O)CN1CCOCC1)c1c(N)n(CC(C)C)c(=O)[nH]c1=O
  Vaccinia Venus = 0% | Vaccinia mCherry = -20%
O=C(/C=C/c1ccco1)Nc1scc(-c2ccccc2)c1C(=O)O
  Vaccinia Venus = -11% | Vaccinia mCherry = 7%
CCOC(=O)C1=C(O)C(=O)N(Cc2cccnc2)C1c1ccc(OC)cc1 (stereo not drawn)
  Vaccinia Venus = -12% | Vaccinia mCherry = -6%
Cc1cc(N(C)C)cc(C)c1/C=C/c1ccnc2ccccc12
  Vaccinia Venus = -23% | Vaccinia mCherry = -17%

Continued:
SMILES | Vaccinia Venus | Vaccinia mCherry
COc1ccc(N(C(=O)CNC(=O)c2ccco2)C(C(=O)NC2CCCC2)c2ccc(C)o2)cc1 (stereo not drawn) | -1% | -3%
O=C(NCc1cc(C(F)(F)F)cc(C(F)(F)F)c1)C1CC(c2c(Cl)cccc2Cl)=NO1 (stereo not drawn) | -15% | -4%
O=C(CSc1nc2ccccc2c(=O)[nH]1)Nc1ccc(Br)cc1 | 5% | i
CC(C)c1ccc(NC(=O)Cn2c(=O)oc3cc(S(=O)(=O)N4CCCC4)ccc32)cc1 | ? | ?
CC1=CC=CN2C1=NC(=O)CC2(C)C(=O)N(CC(=O)NC1CCCC1)Cc1ccccc1 (stereo not drawn) | -4% | -10%
Cc1cc(NC(=O)CN(C)S(=O)(=O)c2ccc3c(c2)CCCC(=O)N3)ccc1Br | -20% | ?
Cc1nn(-c2ncc(C(F)(F)F)cc2Cl)c(=O)n1-c1ccccc1Cl | -3% | -8%
COC1OC2COC(c3ccccc3)OC2C2OC12 (stereo not drawn) | 0% | -12%
CCCCCCN1C(=O)CC(NC(=O)OCC2c3ccccc3-c3ccccc32)C/C=C\C1C(C)C (stereo not drawn) | -30% | -1%
Cn1c(=O)c2c(SCc3cccc(C(F)(F)F)c3)nc(-c3ccco3)nc2n(C)c1=O | -11% | -10%
O=C(Nc1ccccn1)NC12CC3CC(CC(C3)C1)C2 | ? | .
CCCC/C(=N/O)c1c(C)[nH]c2ccccc12 | -2% | i
Cc1nc(N)nc(Cl)c1Cc1ccc(Cl)cc1 | -7% | -28%
Cc1ccc(CN(C)CC(=O)Nc2ccc3c(c2)CCC3)cc1 | -6% | -10%
Nc1ccc2c3c(cccc13)C(=O)N(c1ccccc1)C2=O | 100%[activator] | -9%
COc1cc(SC)ccc1C(=O)N1CCN(c2ccccc2)CC1 | -17% | -14%
CC(=O)Nc1ccc(NC(=O)COC(=O)c2ccccn2)cc1 | -7% | -8%
COc1ccc(S(=O)(=O)Nc2ccccc2OC)cc1NC(=O)Cc1cccs1 | -15% | ?
CC(C(=O)N1CCCC1)c1ccc([N+](=O)[O-])cc1 (stereo not drawn) | -4% | -3%
OCCN1CNC(=S)NC1 | -1% | i
COc1ccccc1Oc1ccc(N/C=C2/CCCC2=O)cc1 | -15% | -5%
COc1ccc(NC(=O)Nc2ccc(F)cc2F)cc1 | -14% | i
N#CC1=C(Nc2ccccc2)SC=C(c2ccc(Cl)c(Cl)c2)N=C1N1CCOCC1 | -16% | .
CCCCN(CCCC)S(=O)(=O)c1ccc(OC)c2ncccc12 | ? | ?
COc1ccc(C(=O)N2CCCCC2c2cc(C(=O)Nc3cccc(C#N)c3)no2)cc1 (stereo not drawn) | -8% | -13%
CNc1nc(NCc2ccco2)c2ccccc2n1 | ? | -17%
Cc1cccc(N2CCN(C(=O)CCS(=O)(=O)c3ccc4c(c3)CC(=O)N4C)CC2C)c1 (stereo not drawn) | 9% | -5%
CCCCC1(C(=O)OCC)CC(CSC(=N)N)OC1=O (stereo not drawn) | -7% | -5%
O=C1CC(c2ccccc2)n2nc(NC(=O)c3ccccn3)nc2N1 (stereo not drawn) | -20% | .
Cc1cc(Cl)ccc1OCC(=O)NCCCN1CCOCC1 | 1% | -14%
CC(=O)N1CCN(C(=O)c2ccc(Oc3ccccc3)cc2)CC1 | 5% | i
CC1CCN(S(=O)(=O)c2cccc(C(=O)Oc3ccc([N+](=O)[O-])cc3)c2)CC1 | -6% | -14%
O=C(Nc1ccccc1F)c1ccc(Br)o1 | -13% | i
Cc1ccc(NC(=O)COC(=O)Cn2c(C)csc2=O)c([N+](=O)[O-])c1 | -20% | i
Cc1cc2ccccc2n1CCNC(=O)c1cccs1 | 73%[activator] | 23%
Cc1nn(Cc2nnc(SCC(=O)Nc3cccc(C(F)(F)F)c3)n2C)c(C)c1[N+](=O)[O-] | -26% | -23%
Cc1cccc(NC(=O)CC2c3ccccc3Oc3ccccc32)c1 | -9% | i
Cc1c(/C=N/O)sc2ccccc12 | -10% | i
NC(=O)NNC1=Nc2cccc3cccc1c23 | -5% | -14%
O=C(NCC(c1ccco1)N1CCCC1)c1sc2cc(F)ccc2c1Cl (stereo not drawn) | -4% | -28%
CC(=O)N=c1ncn(CC(COC(C)=O)OC(C)=O)c2nc[nH]c12 (stereo not drawn) | ? | -8%
CN(CCNC(=O)CCNC(=O)Cn1ccc2ccccc2c1=O)Cc1ccccc1 | -10% | i
Cc1ccc(C)c(N2N=C(C(=O)Nc3ccccc3N3CCCC3)CCC2=O)c1 | -24% | -20%
CSc1ncc(C(=O)NCc2ccc(Cl)cc2)c(C(F)(F)F)n1 | -6% | -10%
O=S(=O)(c1ccccc1)c1nc(-c2cccs2)oc1SCc1ccc(F)cc1 | -13% | -9%
C[n+]1cccc(/C=N/Nc2nc(Cl)c(C#N)c(Cl)c2Cl)c1 | 11% | -12%
CCOC(=O)c1ccc(NC(=O)c2c(NCc3cccc(OC)c3)sc3c2CCC3)cc1 | -1% | -11%
CC(NC(=O)Nc1ccccc1Cl)c1ccc2c(c1)OCO2 (stereo not drawn) | 12% | -9%
COc1ccc(/C=C/C(=O)N[C@H](C(=O)O)C(C)C)cc1 | -5% | -13%
CC(=O)Nc1ccccc1OCc1nnc(-c2ccccc2Cl)o1 | -8% | -16%
COc1ccc(/C=C/C(=O)NCC(=O)N/N=C/c2cccs2)cc1 | -9% | -14%
CC(NC(=O)C(=O)NN=C1CCCCCC1)c1ccccc1 (stereo not drawn) | -2% | -13%
Cc1ccc([C@H]2C[C@@H](n3cc(COC(=O)c4ccccc4)nn3)[C@H](O)CN2Cc2cccs2)cc1 | ? | -6%
Brc1cccc(Nc2nc(-c3cccnc3)cs2)c1 | -22% | ?
S=C(NCc1ccccc1)NC1CCSc2ccccc21 (stereo not drawn) | -14% | -28%
CCC(C)NC(=O)c1cc(S(=O)(=O)N2CCCCC2)c[nH]1 (stereo not drawn) | -10% | -21%
Cc1nccn1CC(=O)N/N=C/c1cc(Br)cs1 | 2% | -7%
Cc1cccc(-c2nnc(-c3cccc4ccccc34)o2)c1 | -1% | -8%
O=C(CSc1nnc(-c2ccccc2)o1)N1CCc2ccccc2C1 | -9% | -12%
Cc1cc(C)c(S(=O)(=O)n2cnc(C)c2)c(C)c1 | -1% | -5%

Source: PubChem (National Center for Advancing Translational Sciences (NCATS))
